TRPV1 potentiator: human TRPV1 potentiation | TRPV1-expressing cells, Fluo-8 calcium influx, capsaicin EC20 potentiation; host cell line not named in the record; control for the full effect not named in the record | potentiation, % at 8.33 µM | actives 0.02% (n = 320,000); active means potentiation above 80%; inconclusive means 30% to 80%; inactive means below 30%; also: 0% is about no effect
Target sequence (Q8NER1 whole entry, looked up): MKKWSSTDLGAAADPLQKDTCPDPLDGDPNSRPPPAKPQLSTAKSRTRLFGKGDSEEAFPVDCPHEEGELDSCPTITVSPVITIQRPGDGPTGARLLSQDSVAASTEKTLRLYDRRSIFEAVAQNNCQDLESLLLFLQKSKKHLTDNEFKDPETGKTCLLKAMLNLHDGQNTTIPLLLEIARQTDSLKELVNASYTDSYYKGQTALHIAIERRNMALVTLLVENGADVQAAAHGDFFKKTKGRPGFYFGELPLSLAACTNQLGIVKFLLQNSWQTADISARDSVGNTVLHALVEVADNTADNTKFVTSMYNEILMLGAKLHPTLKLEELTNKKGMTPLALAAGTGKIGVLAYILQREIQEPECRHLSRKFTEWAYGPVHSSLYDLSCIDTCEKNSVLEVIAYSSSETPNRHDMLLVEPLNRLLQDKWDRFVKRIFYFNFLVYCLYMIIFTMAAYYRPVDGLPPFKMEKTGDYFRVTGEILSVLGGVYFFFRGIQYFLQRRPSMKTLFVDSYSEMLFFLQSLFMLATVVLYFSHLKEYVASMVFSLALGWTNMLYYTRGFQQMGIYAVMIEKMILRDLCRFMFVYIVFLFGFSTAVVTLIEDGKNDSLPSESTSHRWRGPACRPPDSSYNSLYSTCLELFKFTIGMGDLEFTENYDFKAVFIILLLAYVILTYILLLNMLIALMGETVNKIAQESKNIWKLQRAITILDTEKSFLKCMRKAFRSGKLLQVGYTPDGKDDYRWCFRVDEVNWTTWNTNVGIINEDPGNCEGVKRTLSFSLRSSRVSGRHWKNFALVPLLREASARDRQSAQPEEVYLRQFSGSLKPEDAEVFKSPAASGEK
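TRPV1-expressing cells were cultured overnight at 35.5C and loaded with Fluo-8 calcium dye for 40 to 90 min at room temperature. After a 10 s baseline, compound was added and calcium influx was read kinetically for 3 min (ex 480/em 520 nm).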
Sfp PPTase inh: inhibitors of Bacillus subtilis Sfp phosphopantetheinyl transferase. Q9F4F7. Biochemical Sfp PPTase activity, qHTS. Potency, µM, for the others: max response, negative = inhibition, hits mostly inhibitors. actives 3.5% (n = 310,000); active = well fitted inhibition curve with a large enough effect; inconclusive = small, poorly fitted or top-dose-only effect, or another doubt; inactive = no such curve, though single readings can be large or run the other way;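 also: the enzyme is Sfp with the accession as filed and its product quenches rhodamine fluorescence; potency is read from the fitted curve at half-maximal effect; 0% = enzyme reaction without inhibitor and -100% = no enzyme wells; top concentration of the series not given in the record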
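After 15 min at room temperature with compound, 15 nM Sfp received 5 uM rhodamine-CoA plus 12.5 uM BHQ-2-ybbR (50 mM Hepes pH 7.6, 10 mM MgCl2). Rate came from the fluorescence difference over 30 min, ex 525/em 598 nm.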
D2 PAM: human D2 receptor positive allosteric modulation. P14416. DiscoveRx D2 beta-arrestin cells, luminescence, 90 min; 100% = 57 uM dopamine signal. potentiation, % (concentration not given with the values). actives 0.23% (n = 360,000). AID 624464; active = potentiation of 50% or more; inconclusive = 30% to 50%; inactive = 30% or less;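 also: compound concentration not given in the record; tested on top of an EC20 dose of dopamine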
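D2 cells co-treated with compound plus 50 nM dopamine (EC20) for 90 min at 37 deg C to detect potentiation. Beta-arrestin recruitment was read as enzyme-fragment luminescence after 1 h at ambient temperature. Full response was set by 57 uM dopamine.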
CtBP-E1A inh: CtBP/E1A binding inhibition; AlphaScreen GST-E1A/His-CtBP binding, 1536-well; stronger effect = lower value; control for the full effect not named in the record; AID 651724; actives 0.49% (n = 340,000); activity change, % (test concentration not listed); in the data active means activity change below about -65%; inconclusive means about -30% to -65%; inactive means above about -30%; also: % is scaled to controls: 0 for no effect and ±100 for the full control effect; compound concentration not given in the record
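Homogeneous bead-based format: GST-tagged E1A captured on glutathione donor beads, His-tagged CtBP on nickel acceptor beads; compounds precede bead addition by 2 h at 37 °C.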
PINK1 expr mod: PINK1 expression modulation. PINK1 immunofluorescence, high-content cytometry, 24 h. Potency, µM (highest dose often 76.6 µM), without a hit: at the highest dose activation (PINK1 increase), hits mostly activators. actives 0.2% (n = 410,000). AID 624263; active = well fitted activation curve with a large enough effect; inconclusive = small, poorly fitted or top-dose-only effect; inactive = flat fitted curve, though single readings scatter; cell line not stated here;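 also: potency is read from the fitted curve at half-maximal effect; % of control where 0% means no effect; nearly all actives have a fitted effect of over 65% in size; a mitochondrial uncoupler was the plate control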
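Decision-based qHTS: stable cells, 24 h exposure to five compound concentrations, CCCP as control. Fixed cells stained for PINK1 plus nuclear, mitochondrial and cell markers, cytometer read.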
D2 agonist: activates the human D2 dopamine receptor. P14416. DiscoveRx PathHunter D2 beta-arrestin, luminescence, 90 min; 100% = 57 uM dopamine signal. activation, % (test concentration not listed). actives 0.084% (n = 360,000). AID 624465; in the data active = activation above about 40%; inconclusive = about 15% to 40%; inactive = below about 15%; also: compound concentration not given in the record; the text of the record calls up to 30% inactive
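DiscoveRx PathHunter D2 beta-arrestin cells (2,100/well) attached overnight, then compound-stimulated 90 min at 37 C in HBSS/10 mM HEPES/0.1% Tween-20 buffer; beta-galactosidase complementation read by luminescence after 1 h at ambient temperature. Dopamine 57 uM final (EC100) as control.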
Six1-Eya2 blk: Six1/Eya2 interaction inhibition | AlphaScreen GST-Six1/His-Eya2 binding, biochemical; stronger effect = lower value; control for the full effect not named in the record | activity change, % (concentration not given with the values) | actives 0.56% (n = 360,000) | AID 651725; in the data active = activity change below about -65%; inconclusive = about -30% to -65%; inactive = above about -30%; also: % is scaled to controls: 0 for no effect and ±100 for the full control effect
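AlphaScreen with GST-Six1 and His-Eya2 (5X mix: 250 nM and 500 nM), glutathione donor and nickel acceptor beads; buffer 50 mM Tris pH 8.0, 300 mM NaCl, 1 mM TCEP; 1 h at 37 C in the dark.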
* = called active by the depositor; ? = inconclusive; nt = no result given; [ ] = dose if it differs, or a comment.

SMILES	TRPV1 potentiator	Sfp PPTase inh	D2 PAM	CtBP-E1A inh	PINK1 expr mod	D2 agonist	Six1-Eya2 blk
O=C(Oc1ccccc1)c1ccccc1OS(=O)(=O)c1ccccc1	1	-12%	-7	30	1.1%	-1.7	18
COC(=O)c1ccc(Cl)c(NC(=O)CN2CCN(Cc3ccccc3)CC2)c1	-12	4%	-4	2	8.6%	1.5	0
CC(=O)C(Cc1ccccc1)NC(=O)COC(=O)c1cccc(C)c1[N+](=O)[O-] (stereo not given)	nt	nt	-10	1	2.6%	-0.4	1
COc1ccc2oc(C(=O)OCC(=O)N3CCN(c4ccccc4)CC3)c(C)c2c1	-6	nt	-8	-7	-0.9%	-1.3	-4
CCN(CC(=O)Nc1ccc(Br)cc1)C(=O)Cc1cccc(F)c1	1	21%	-9	-9	3.7%	0.9	-9
Cc1cc(C)c2sc(NC(=O)c3ccc([N+](=O)[O-])o3)nc2c1	-22	-5%	-1	1	2.2%	1.1	2
CCCNC(=O)C1(C)CCCN(C(=O)c2ccc3sccc3c2)C1 (stereo not given)	nt	nt	-4	1	0.9%	-3.6	-2
Cc1c(NC(=S)NC(=O)C2CCCCC2)c(=O)n(-c2ccccc2)n1C	14	11%	4	0	0.1%	-7.7	2
Cc1cc(NC(=O)C2(c3ccccc3)CCCC2)no1	2	2%	-4	-1	1.0%	-2.7	0
CC(C)CN(C(=O)c1ccco1)c1nc2ccccc2s1	14	?	9	7	4.8%	-1.3	14
CCC(C)C(NC(=O)OC(C)(C)C)C(=O)NC(C(=O)N1CCCC1C(N)=O)C(C)CC (stereo not given)	18	6%	2	9	-1.6%	6.6	7
CC(Sc1nc2ccccc2c(=O)n1CC1CCCO1)C(=O)N(C)Cc1ccccc1 (stereo not given)	1	nt	5	-1	6.1%	4.9	1
CCOC(=O)c1c(C)nc2c(c1-c1ccccc1)C(=O)CC(C)(C)C2	nt	6%	-2	0	2.0%	-1.1	7
O=C(CSC(=S)N1CCCC1)N/N=C/c1c(O)[nH]c(=S)[nH]c1=O	nt	nt	-7	-93*	-0.3%	6.2	-91*
COc1ccc(CN(C)C(=S)Nc2ccc(Cl)cc2)cc1	-7	19%	-2	-24	2.4%	-3.2	0
CCOC(=O)c1cnc(SCC(=O)Nc2cc(C(F)(F)F)ccc2N2CCOCC2)nc1N	-11	?	3	-5	20%	-3.2	3
O=C(COc1ccc([N+](=O)[O-])cc1)Nc1nnc(-c2cccnc2)s1	4	-7%	-6	nt	0.7%	-5.3	-16
COc1ccc(-c2ccc3c(c2)S(=O)(=O)c2cccc(C(=O)NC4CCCCC4)c2C3=O)cc1OC	2	nt	-4	nt	4.7%	-1.6	13
NC(=O)c1c(NC(=O)c2ccccc2C(=O)O)sc2c1CCCC2	0	6%	-13	1	1.2%	-3.4	1
CC(C)(C)c1ccc(C(=O)c2c[nH]c(C(=O)NCCCn3ccnc3)c2)cc1	-7	-6%	-27	-16	nt	-2.0	-26

Retrieved by structure from the entries so far (2):
SMILES	TRPV1 potentiator	Sfp PPTase inh	D2 PAM	CtBP-E1A inh	PINK1 expr mod	D2 agonist	Six1-Eya2 blk
COc1ccc2oc(C(=O)OCC(=O)N3CCN(c4ccccc4)CC3)c(C)c2c1	-6	nt	-8	-7	-0.9%	-1.3	-4
COc1ccc(CN(C)C(=S)Nc2ccc(Cl)cc2)cc1	-7	19%	-2	-24	2.4%	-3.2	0

Later entries.
SMILES	TRPV1 potentiator	Sfp PPTase inh	D2 PAM	CtBP-E1A inh	PINK1 expr mod	D2 agonist	Six1-Eya2 blk
Cc1cc(-c2nnc(CCC(=O)NC(C)c3ccccc3Cl)o2)no1 (stereo not given)	-5	13%	-16	0	2.1%	-1.6	4
COc1ccccc1C(=O)N/C(=C\c1ccc(Br)cc1)C(=O)NCC(=O)O	2	11%	1	-6	1.0%	-0.3	-2
O=C(CSc1ncccn1)N1CCN(C(=O)CSc2ncccn2)CC1	-3	5%	-16	8	3.1%	-2.0	6
CCCCOC(=O)C1=C(C)Nc2ncnn2C1c1ccc(OCC)c(OC)c1 (stereo not given)	20	6%	-5	7	4.2%	0.3	1
Cc1cc(C)cc(N(CCC#N)C(=O)CSc2ncnc3sccc23)c1	-9	nt	-8	-8	1.0%	-2.2	8
COc1ccccc1CNC(=O)CCN1C(=O)COc2ccccc21	2	0%	-20	7	5.5%[38.3 µM]	-0.7	2
O=C(CCC1CCN(C(=O)C2CC=CCC2)CC1)Nc1ccccc1 (stereo not given)	nt	nt	-7	3	1.5%	-0.8	0
CN1CCN(C(=O)c2ccc3c(=O)n(Cc4ccc(Cl)cc4)c(=S)[nH]c3c2)CC1	4	-5%	2	-8	6.8%[38.3 µM]	1.1	-10
Cc1nn(C)cc1C(=O)/C=C/c1ccc([N+](=O)[O-])cc1	-11	-1%	-4	-5	-2.6%	1.4	-8
O=C(NNC(=O)c1cccc(C(F)(F)F)c1)c1ccncc1	20	16%	-7	-1	-0.2%	-3.8	8
N#CC1=C(N)Oc2n[nH]c(CSc3ccccc3)c2C12C(=O)Nc1ccccc12 (stereo not given)	-9	18%	25	0	0.8%[38.3 µM]	5.1	-1
CCCC12CN3CC(C)(CN(C1)C3c1ccco1)C2=O (stereo not given)	-29	-9%	-3	10	1.1%	-17	0
CCCCCC1CC(=O)N(Cc2ccccc2)C(=O)N1 (stereo not given)	-22	17%	?	5	0.5%	-1.0	0
Cc1ccc(N2CN(CCc3ccccc3)CNC2=S)cc1	4	0%	-20	nt	1.3%	-6.4	-1
O=C(N/N=C/c1cccs1)C(O)c1ccccc1 (stereo not given)	-6	7%	-19	nt	0.8%	-4.1	-2
CCOC(=O)c1sc(NC(=O)Cc2ccc(F)cc2)nc1C	-6	?	-2	5	1.5%	-7.9	16
[O-]/[N+](=C\c1cccc(Br)c1)c1ccccc1	-9	12%	-4	5	1.4%	-1.3	-1
CC(C)(C)c1ccc(NC(=O)COC(=O)CCN2C(=O)c3cccc([N+](=O)[O-])c3C2=O)cc1	-8	2%	-3	-7	3.8%	-2.2	4
Cc1ccc(/C(O)=C2\C(=O)C(=O)N(C)C2c2cccc([N+](=O)[O-])c2)cc1 (stereo not given)	-2	-10%	-4	-3	2.1%	0.8	-1
CN1CCN(c2ccccc2NC(=O)COc2ccc(C3CCCCC3)cc2)CC1	-12	-19%	-9	-3	-4.4%	0.1	-2

CtBP-E1A inh: entries above that show a hit
smiles	Sfp PPTase inh	D2 PAM	CtBP-E1A inh	PINK1 expr mod	D2 agonist	Six1-Eya2 blk
O=C(CSC(=S)N1CCCC1)N/N=C/c1c(O)[nH]c(=S)[nH]c1=O	nt	-7	-93*	-0.3%	6.2	-91*

Other compounds follow:
SMILES	TRPV1 potentiator	Sfp PPTase inh	D2 PAM	CtBP-E1A inh	PINK1 expr mod	D2 agonist	Six1-Eya2 blk
CN(c1ccc(C(=O)NC2CCCC2)cc1)S(=O)(=O)c1ccccc1	-2	13%	-1	-3	-0.8%	1.0	12
COc1ccc(C2=CCCCCC2)c(OC)c1OC	nt	nt	-1	29	?	-3.7	13
COc1cccc(C(C)(O)c2nc(-c3cccc(C(=O)O)c3)cs2)c1 (stereo not given)	nt	nt	-9	1	0.4%	-8.2	1
CC(=O)N1CCOc2ccc(S(=O)(=O)N3CCCCC3)cc21	7	0%	3	1	0.4%	-0.3	1
COc1cc(Br)cc(Br)c1OCC(=O)N/N=C/c1c(C)n(C)n(-c2ccccc2)c1=O	1	14%	1	-7	1.9%	2.6	-9
Cc1ccc(C(=O)COC(=O)c2cnccn2)cc1	?	-4%	-9	4	-2.1%	-0.2	4
Cc1ccc(NC(=O)[C@@H](CC(C)C)NC(=O)[C@@H]2Cc3ccccc3CN2)cc1	-9	11%	-26	3	-0.6%	4.5	5
O=C(Nc1ccc(Cl)cc1)C(c1ccccc1)N(CCO)CCO (stereo not given)	1	10%	2	5	-7.8%[38.3 µM]	-0.5	1
CCOC(=O)c1cnc2ccc(Cl)cc2c1NCCN(C)C	8	-5%	-19	4	2.6%	-4.1	-1
Cc1cc(-c2ccccc2)n(-c2ccc(C(N)=O)cc2)n1	-9	-24%	-10	2	0.0%	0.0	3
CN(/N=C/c1ccc(O)cc1O)c1ncc(C(F)(F)F)cc1Cl	-14	24%	-11	-4	12%	-1.0	-4
CCOCCCNC(=O)C1CCN(S(=O)(=O)N2CCCC2)CC1	-6	-10%	-5	nt	-0.8%	1.6	2
Clc1ccc(-c2nnc3n2CCCCC3)cc1	0	9%	-10	-2	0.0%	-0.1	2
O=C(COC(=O)CNC(=O)C1CCCCC1)Nc1ccc2ccccc2c1	11	-1%	-3	1	-0.5%	-2.5	8
O=c1c2ccccc2cnn1Cc1n[nH]c(=S)n1-c1ccc(F)c(Cl)c1	-2	6%	-11	11	1.0%	-4.6	3
Cc1[nH]c(C)c(S(=O)(=O)N2CCN(c3cccc(Cl)c3)CC2)c1C(=O)N1CCCC1	-7	18%	-7	0	1.9%	0.4	9
CCOC(=O)c1c(C)[nH]c(C(=O)C(C)OC(=O)c2cnc(C)cn2)c1C (stereo not given)	-6	nt	-5	-1	-1.0%	-0.4	-1
Fc1c(F)c(F)c(CSc2nc3ccccc3[nH]2)c(F)c1F	11	-2%	-6	6	0.8%	-2.7	1
Cc1ccc(C(=O)Nc2nccc(C)n2)cc1	-4	12%	1	6	0.2%	1.6	2
COc1cccc(C(=O)Nc2ccc(C(=O)c3ccncc3)cc2)c1	-15	-1%	-4	-3	5.7%	-7.4	8
Cc1ccc(N2CC(C(=O)Nc3nnc(SCC(=O)Nc4cc(C)on4)s3)CC2=O)cc1 (stereo not given)	-7	15%	-5	2	1.3%	-2.5	3
Cc1cc(C)n2c(NC3CCCCC3)c(-c3cccnc3)nc2n1	nt	nt	nt	-9	-1.1%	nt	7
O=[N+]([O-])c1ccc(C(O)CSC(=S)N2CCCCC2)cc1 (stereo not given)	-7	9%	5	1	1.0%	8.8	-2
O=C(c1ccccc1NS(=O)(=O)c1cccc([N+](=O)[O-])c1)N1CCOCC1	-6	23%	-8	6	-0.1%[38.3 µM]	0.4	6
CCCNC(=O)C1(C)CCCN(C(=O)C2(c3ccc(Cl)cc3)CCCC2)C1 (stereo not given)	nt	nt	-4	-17	2.7%	-4.0	7
Cc1cc(C(=O)N/N=C/c2c3ccccc3cc3ccccc23)n[nH]1	3	13%	-1	-20	0.4%	-1.9	-8
COc1ccc(N(C(=O)CNC(=O)c2ccco2)C(C(=O)NCC2CCCO2)c2ccccc2)cc1Cl (stereo not given)	2	3%	7	15	4.4%	0.7	5
COc1ccccc1/C=C/C=N/N1CCN(Cc2ccc(Cl)cc2)CC1	9	-22%	-11	?	20%[38.3 µM]	0.1	?

Screening data (PubChem)
